High-throughput results from PubChem BioAssay.
UUG fidelity – yeast start codon fidelity modulation; AID 602363; S. cerevisiae UUG-firefly luciferase reporter, luminescence/redox ratio; activity score, % at 18.7 µM; 350,000 tested, 0.13% active;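 active = replicate mean at a twofold rise or more, about +100% in these data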;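 also: firefly luciferase made from a UUG start codon reports start codon fidelity; reporter light over untreated wells divided by growth signal over untreated wells; some hits fall short of that in this replicate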
CSC inhib – cancer stem cell inhibition. cancer stem cell-like cells viability, luminescence. inhibition, % at 7.5 µM. 300,000 tested, 1.1% active;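 active = mean at 75% or more and at least half the replicates too; tested in HMLE shEcad cells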;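 also: 0% = median of negative and 100% = median of positive control wells; the first replicate is given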
eIF4H FP inh – inhibitors of RNA binding by human eIF4H. eIF4H fluorescence polarization binding assay. inhibition, % at 35 µM. 290,000 tested, 0.94% active. AID 2012;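 active = 50% or more with normal probe brightness, or confirmed in later tests; about a fifth of its hits are not listed in these tables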;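 also: calls also rest on retests at 20 µM and on dose response follow-up; 0% = protein and probe with vehicle and 100% = probe without protein; strong numbers were not always called active; many hits fall short of the cut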
Rce1 inhib – blocks yeast Ras-converting enzyme; yeast membranes, quenched prenylated peptide cleavage fluorescence; calls only; AID 2563; 290,000 tested, 0.27% active;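 active = fall in fluorescence gain of 50% or more versus controls, with final raw signal at or below 3038400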;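 also: plate controls were neutral control wells for no effect and wells lacking membranes for full effect; tested at 10 µM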
Target sequence (Q03530 whole entry, looked up): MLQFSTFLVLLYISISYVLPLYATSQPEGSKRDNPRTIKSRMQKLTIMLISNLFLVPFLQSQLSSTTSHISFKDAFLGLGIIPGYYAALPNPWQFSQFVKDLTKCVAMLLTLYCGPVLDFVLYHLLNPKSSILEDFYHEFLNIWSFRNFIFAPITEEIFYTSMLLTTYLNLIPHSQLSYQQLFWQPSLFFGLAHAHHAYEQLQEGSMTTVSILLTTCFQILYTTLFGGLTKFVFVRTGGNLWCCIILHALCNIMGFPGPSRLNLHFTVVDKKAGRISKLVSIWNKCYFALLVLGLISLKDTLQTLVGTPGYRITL
PABP FP inh – blocks human PABP binding to poly(A) RNA; 290,000 tested, 1% active; inhibition, % at 35 µM; P11940; fluorescence polarization;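 active = 50% or more with normal probe brightness, or confirmed in later tests; about a fifth of its hits are not listed in these tables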;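 also: calls also rest on retests at 20 µM and on dose response follow-up; controls were probe without protein and protein plus probe with vehicle; some compounds called inactive have numbers as strong as hits; many hits fall short of the cut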
Target sequence (P11940 whole entry, looked up): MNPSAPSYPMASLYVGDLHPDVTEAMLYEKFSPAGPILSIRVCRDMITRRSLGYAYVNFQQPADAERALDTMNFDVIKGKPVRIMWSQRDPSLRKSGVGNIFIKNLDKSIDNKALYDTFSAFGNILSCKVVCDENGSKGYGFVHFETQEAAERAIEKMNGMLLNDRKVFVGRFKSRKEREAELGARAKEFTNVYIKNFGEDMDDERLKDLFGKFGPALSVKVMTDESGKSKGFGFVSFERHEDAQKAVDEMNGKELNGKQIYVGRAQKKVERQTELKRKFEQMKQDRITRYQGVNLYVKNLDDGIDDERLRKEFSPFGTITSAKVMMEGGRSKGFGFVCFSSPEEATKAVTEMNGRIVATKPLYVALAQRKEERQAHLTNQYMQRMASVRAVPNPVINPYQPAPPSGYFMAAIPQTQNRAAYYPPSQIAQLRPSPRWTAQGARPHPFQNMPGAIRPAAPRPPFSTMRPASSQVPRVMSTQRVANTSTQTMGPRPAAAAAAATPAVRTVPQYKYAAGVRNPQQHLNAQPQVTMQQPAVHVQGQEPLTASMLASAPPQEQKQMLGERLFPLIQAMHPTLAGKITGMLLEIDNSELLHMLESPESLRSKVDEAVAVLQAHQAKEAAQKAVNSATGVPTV
MT1-MMP act inh – MT1-MMP (human) activation inhibition; 360,000 tested, 0.061% active; HT1080 RFP-PRO-GFP cells, GFP/RFP ratio fluorescence, overnight; percent of plate control window, DMSO zero; AID 651647; GFP/RFP ratio change, % at 20 µM; P50281;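 active = GFP/RFP ratio change of at least 30% with cell ATP level not reduced by more than half and red fluorescence within 50% of control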; also: strong numbers were not always called active
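Material: RFP-PRO-GFP reporter HT1080 cells. Dosing: single-point 20 µM compound, 1% DMSO. Controls: DMSO and RFP-L50D-GFP cell wells. Timing: cells overnight before dosing, compound overnight, 37 °C, 5% CO2. Measure: GFP/RFP fluorescence ratio.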
Env fusion inh – HIV envelope-mediated fusion inhibition; inhibition, % at 12.3 µM; HeLa-JRFL Env/CEM21 cell fusion, luciferase; AID 651610; 360,000 tested, 1.1% active;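 active = mean replicate inhibition score of at least 50 and every replicate individually at or above 50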;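 also: 0% = plate neutral controls and 100% = maraviroc near 300 nM; one replicate is shown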
MT1-MMP act inh RFP – also measured in MT1-MMP act inh; calls as there; RFP signal change, %; measured here: RFP expression control read;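 0 = vehicle wells; hits needed this value within 50% of zero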
* hit, by the source's call; i = inactive; x = not tested or not shown. A portion of the library; count on the stated rates, not on these rows.

SMILES | UUG fidelity | CSC inhib | eIF4H FP inh | Rce1 inhib | PABP FP inh | MT1-MMP act inh | MT1-MMP act inh RFP | Env fusion inh
CCOC(=O)c1c(-c2cccc([N+](=O)[O-])c2)csc1N | 5 | -1 | -1 | i | -3 | -1 | 0 | -4
O=C(CCC(=O)N1CCN(c2ccccc2F)CC1)N1CCN(c2ccc(F)cc2)CC1 | 6 | -17 | 10 | i | 0 | 1 | -9 | 11
CCOC(=O)c1ccc(NC(=O)c2cc(C)nc3ccccc23)cc1 | -9 | -9 | -2 | i | 6 | 3 | 0 | -2
Cc1ccc(S(=O)(=O)Nc2c(C)n(C)n(-c3ccccc3)c2=O)c(C)c1 | 4 | -15 | -6 | i | -2 | -4 | 1 | 10
COc1ccc(CNC(=O)C2CCN(S(=O)(=O)c3ccc(-c4nn[nH]n4)cc3)CC2)cc1 | -16 | 10 | -9 | i | 13 | 5 | 3 | x
CCCCN(C(=O)c1ccc(N2CCCC2=O)cc1)c1c(N)n(CCC)c(=O)[nH]c1=O | -2 | 0 | x | x | x | -2 | 1 | -19
Cn1cccc1/C=N/NC(=O)c1sc2cc(Cl)ccc2c1Cl | x | -3 | -2 | i | 5 | x | x | -13
O=C(Nc1c(F)cccc1F)C1CCN(C(=O)c2cccs2)CC1 | -35 | -7 | 1 | i | -1 | -1 | 1 | 6
CC(=O)c1c(C)[nH]c(C(=O)CN2C(=O)NC(CCc3ccccc3)C2=O)c1C (stereo not drawn) | x | -6 | 0 | x | -2 | -2 | -1 | 11
CCC(=O)N(c1nnc(SCC(=O)c2ccc[nH]2)s1)C1CC1 | x | -17 | x | x | x | 2 | -1 | -25
Cc1snc(SCC(=O)c2ccc(F)cc2)c1C#N | x | -8 | 9 | i | -2 | 4 | 2 | -6
COc1cc2nc(CSc3nc(-c4ccc(F)cc4)cs3)[nH]c(=O)c2cc1OC | 1 | -6 | -7 | i | -10 | -4 | -6 | -23
CCOC(=O)c1cc2c(ccc3ccccc32)oc1=O | x | -1 | -12 | i | 7 | 5 | 2 | -13
COc1cc(OC)c(NC(=O)c2ccoc2C)cc1Cl | -6 | -15 | 4 | i | -5 | -1 | -3 | 13
O=C(NC(Cc1ccccc1)C(=O)O)/C(=C/c1ccc([N+](=O)[O-])cc1)NC(=O)c1ccccc1Br (stereo not drawn) | x | -9 | 4 | i | -5 | 0 | 5 | 3
CCOC(=O)N1CCN(C(=O)CSc2nnc(Cc3cccn3C)n2CCc2ccccc2)CC1 | -2 | -3 | 9 | i | 4 | 0 | 2 | -43
COc1ccccc1CNC(=O)CSc1ccc(-c2cccc([N+](=O)[O-])c2)nn1 | -47 | -4 | -3 | i | 5 | -2 | -2 | 2
O=C(c1ccc(OC(F)(F)F)cc1)c1ncc[nH]1 | -16 | 2 | -6 | i | -2 | 0 | -1 | x
Cc1ccc([C@@H]2CC=C(C(=O)O)[C@H](c3ccc(Br)cc3)N2S(=O)(=O)c2ccc(C)cc2)cc1 | -12 | x | x | x | x | -4 | -3 | i
O=C(NCc1ccccc1F)C1CCN(C(=O)NCc2ccccc2)CC1 | -14 | -3 | -1 | i | -13 | -4 | -2 | -19

3 entries from above, sorted by the number in MT1-MMP act inh RFP, low to high:
canonical_smiles	UUG fidelity	Rce1 inhib	MT1-MMP act inh	MT1-MMP act inh RFP	Env fusion inh
O=C(CCC(=O)N1CCN(c2ccccc2F)CC1)N1CCN(c2ccc(F)cc2)CC1	6	i	1	-9	11
COc1cc(OC)c(NC(=O)c2ccoc2C)cc1Cl	-6	i	-1	-3	13
CCOC(=O)c1cc2c(ccc3ccccc32)oc1=O	x	i	5	2	-13

Continued:
SMILES | UUG fidelity | CSC inhib | eIF4H FP inh | Rce1 inhib | PABP FP inh | MT1-MMP act inh | MT1-MMP act inh RFP | Env fusion inh
OCCC1CN(Cc2cccn2-c2nccs2)CCN1Cc1ccccc1 (stereo not drawn) | x | -3 | -1 | i | -1 | -3 | 1 | 11
S=C(NCCc1ccccc1)Nc1ccc(Cl)cc1Cl | x | x | -8 | i | 4 | -2 | -4 | x
COc1cccc2[nH]c3c(N4CCc5ccccc5C4)ncnc3c12 | x | 5 | -2 | i | -6 | x | x | x
COc1ccc(C(=O)NNC(=O)c2cc(C)[nH]n2)cc1 | x | -1 | -6 | i | -1 | 0 | 0 | 0
COc1ccc(NS(=O)(=O)c2ccc(SC)cc2)c(OC)c1 | -13 | -2 | -6 | i | -3 | 2 | -7 | 22
CC(C)CN(C(=O)COC(=O)c1ccc(Br)o1)c1c(N)n(Cc2ccccc2)c(=O)[nH]c1=O | x | -12 | x | i | x | 1 | 1 | x
Cc1cc(C)cc(NC(=O)C2CCCN(S(=O)(=O)c3ccc4[nH]c(=O)ccc4c3)C2)c1 (stereo not drawn) | -1 | -3 | -5 | i | 0 | -6 | -11 | 35
O=[N+]([O-])c1ccc(CN2CCN(c3nc4ccccc4s3)CC2)cc1 | -22 | -5 | -4 | i | 12 | -1 | -15 | -13
COc1ccc(N2CCN(C(=O)CNC(=O)c3nn(-c4ccc(OC)cc4)c(=O)c4ccccc34)CC2)cc1 | -9 | -15 | -6 | i | -2 | -5 | -5 | 15
COc1ccc(C(=O)NNC(=O)c2cccc(F)c2)cc1 | x | -3 | -2 | i | 4 | 1 | 5 | -10
CCc1ccc(OCC(=O)Nc2ccc(-c3cc4ccccc4oc3=O)c(OC)c2)cc1 | x | 49 | -12 | i | -6 | 0 | -6 | -145
c1ccc(-c2nnc(SCc3nnc(-c4cccs4)o3)o2)cc1 | x | 7 | -7 | i | 5 | 3 | 6 | x
COc1ccc(S(=O)(=O)N2CCCCCC2)cc1C(=O)OCC(=O)NC1CCS(=O)(=O)C1 (stereo not drawn) | -17 | -13 | x | x | x | -6 | 0 | 4
CC(=O)Nc1ccc(S(=O)(=O)NCc2cn3c(C)csc3n2)cc1 | -30 | 1 | -7 | i | -1 | 1 | 5 | -1
Cc1ccc(OCC(=O)Nc2cccc(S(=O)(=O)N3CCOCC3)c2)c([N+](=O)[O-])n1 | 6 | -11 | -3 | x | -4 | 2 | 1 | 1
Cc1nc2ncnn2c(C)c1CCC(=O)N1CCN(c2ccccn2)CC1 | -17 | -8 | -4 | i | 7 | 3 | 8 | -8
Nc1cc(=O)[nH]c(SCc2nc3ccccc3n2Cc2ccccc2)n1 | -24 | -7 | 4 | x | 0 | -2 | 1 | x
Cc1ccc(C(=O)c2c3ccc(C(F)(F)F)cc3[n+]([O-])n2CCCN)cc1 | -9 | -12 | x | i | x | 0 | 1 | -5
CCN(CC(=O)Nc1c(F)cccc1F)C(=O)CCc1nc2ccccc2c(=O)[nH]1 | x | x | x | i | x | -3 | 1 | -24
COC(=O)/C=C1/SC(=NC(=O)c2ccc(F)cc2)NC1=O | -11 | 7 | -6 | i | 15 | 0 | -1 | 11
Cc1nn(CC#N)c(=O)n1-c1ccc(F)cc1 | 1 | 4 | -11 | i | 5 | -1 | -2 | -328
Cc1nnsc1C(=O)NC1CCCc2c1cnn2-c1ccc(F)cc1F (stereo not drawn) | 6 | 0 | -4 | x | -5 | -4 | -32 | x
CC(CNC(=O)COC(=O)c1ccco1)c1ccccc1 (stereo not drawn) | -13 | -18 | x | x | x | -1 | 0 | x
COc1ccc(CN2CCN(S(=O)(=O)c3ccccc3)CC2)cc1Br | -6 | -4 | -8 | i | 16 | 3 | -2 | -63
O=[N+]([O-])c1cc(C(F)(F)F)ccc1NCCc1c[nH]c2ccc(O)cc12 | -13 | 70 | -7 | i | 6 | 22 | -14 | 3
COC(=O)CN(c1nc(C)cc(OC)n1)S(=O)(=O)c1ccc(C)cc1 | -8 | -5 | 2 | i | 1 | -2 | -2 | x
COc1ccc(N2CCN(C(c3cccs3)C(C)NS(C)(=O)=O)CC2)cc1 (stereo not drawn) | x | -18 | 8 | i | -12 | 1 | 3 | -3
CC(C)(C)c1ccc(NS(=O)(=O)c2ccc(N)cc2)cc1 | -11 | -6 | -1 | i | 1 | 4 | 4 | -7
Cc1ccccc1C(C(=O)NC1CCCCC1)N(C(=O)c1ccccn1)c1cccnc1 (stereo not drawn) | -19 | -8 | -10 | i | -11 | 1 | 3 | 8
Cc1ccc(C(=O)N=c2sccn2C)cc1S(=O)(=O)N1CCOCC1 | -12 | -2 | x | i | x | 1 | 3 | x
CCOc1ccccc1C(=O)Nc1nnc(SCC(=O)Nc2cc(C)on2)s1 | x | 3 | -12 | i | -11 | 0 | -2 | -1
C[C@H]1COC(=O)[C@H](Cc2ccc(F)cc2)CC/C=C/C[C@@H](CC(=O)N(CCO)Cc2ccccc2)C(=O)N1 | 3 | x | x | x | x | -2 | -7 | -37
Cc1nc2ncnn2c(N2CCCC(C(=O)Nc3ccccc3Br)C2)c1C (stereo not drawn) | -14 | 8 | -2 | i | -11 | 1 | -14 | -7
Cc1ccc(N2CC(C(=O)NCCN3CCOCC3)CC2=O)cc1C (stereo not drawn) | -7 | x | -10 | i | -2 | 4 | 4 | -1
Clc1ccc2nc(CSc3nnc4ccccn34)cn2c1 | x | -2 | 0 | i | 6 | 2 | 4 | x
CC1Cc2ccccc2N1Cc1nc2scc(-c3cccs3)c2c(=O)[nH]1 (stereo not drawn) | -11 | 27 | 2 | i | 28 | 3 | 6 | -64
COc1cc2c(C(=O)NC3CCCCCC3)cn(C)c(=O)c2cc1OC | -15 | -14 | -9 | i | 0 | 0 | 5 | x
O=C(CSc1ncn[nH]1)NCCCc1ccccc1 | -5 | -5 | -1 | i | -2 | 2 | 0 | x
Cc1cccc(-n2c(C)n[nH]c2=S)c1 | -19 | -8 | -1 | i | -5 | 5 | 1 | x
COc1ccc(C2=NO[C@@H]3C(=O)N(Cc4ccccc4)C(=O)[C@H]23)c(OC)c1 | 2 | -1 | -3 | i | -6 | 0 | 2 | -3
OC(CNCc1ccco1)Cn1c2ccc(Br)cc2c2cc(Br)ccc21 (stereo not drawn) | -5 | 106* | -10 | i | -22 | -23 | -19 | x
CCOC(=O)c1ccc(N2C(=O)CC(Nc3ccc(CCO)cc3)C2=O)cc1 (stereo not drawn) | -12 | -5 | -6 | i | 1 | 4 | 1 | 17
O=C(CN1C(=O)NC2(CCCC2)C1=O)OCc1cccc(Br)c1 | -11 | -10 | x | x | x | -2 | 4 | x
C=C(C)Cn1c(C(C)NC(=O)CCC)nc2ccccc21 (stereo not drawn) | -18 | -8 | 6 | i | 19 | 3 | 2 | -5
COc1cc(C2CC(=O)Nc3n[nH]c(-c4ccccc4)c32)cc(OC)c1OC (stereo not drawn) | x | 31 | -6 | i | -11 | x | x | x
COc1cc(NC(=O)CN2C(=O)COc3ccccc32)cc(OC)c1 | -5 | x | x | x | x | 8 | 3 | 4
CC(=O)Nc1cccc(-c2csc(Nc3ccc(Cl)cn3)n2)c1 | x | 62 | 5 | i | -6 | -1 | -9 | -148
N#Cc1ccc(S(=O)(=O)NCCc2ccncc2)cc1 | 6 | x | x | x | x | 3 | 4 | 20
FC(F)(F)c1ccc(Cl)c(N/N=C/c2ccc(N3CCOCC3)s2)c1 | x | 64 | -8 | i | -12 | -10 | 6 | -10
CCCCCNCc1ccc(Br)cc1 | x | 2 | -8 | i | 2 | 4 | 5 | x
Cc1onc(-c2c(F)cccc2Cl)c1C(=O)N=C(N)N1CC(C)OC(C)C1 (stereo not drawn) | x | -1 | -4 | i | -3 | 3 | 0 | 10
Cc1cc(NC(=O)c2ccc(F)cc2)n(CCOC(=O)c2ccc(F)cc2)n1 | x | -2 | -4 | i | 1 | 3 | -5 | 10

Part of the list above, set out differently:
SMILES	UUG fidelity	CSC inhib	eIF4H FP inh	Rce1 inhib	PABP FP inh	MT1-MMP act inh	MT1-MMP act inh RFP	Env fusion inh
C=C(C)Cn1c(C(C)NC(=O)CCC)nc2ccccc21 (stereo not drawn)	-18	-8	6	i	19	3	2	-5
COc1cc(C2CC(=O)Nc3n[nH]c(-c4ccccc4)c32)cc(OC)c1OC (stereo not drawn)	x	31	-6	i	-11	x	x	x
COc1cc(NC(=O)CN2C(=O)COc3ccccc32)cc(OC)c1	-5	x	x	x	x	8	3	4
